Screens from PubChem BioAssay.
HSV augment – increases HSV replication in cells; HSV replication augmentation in cells, fold increase; maximum fold increase; hit rate 0.005% among 220,000;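 active means peak rise of 1.5-fold or more in the series; inconclusive means self-fluorescent or not available for retest; tested in PC3 cells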;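 further: first round at 10 µM; read as green reporter fluorescence; hits show the peak of a series up to 25 µM; 1 = signal of infected wells without compound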
PKD1 kinase inh – blocks activity of human protein kinase D1; PKD1 kinase fluorescence polarization assay; inhibition, %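 (about 10 µM by stock and volumes)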; hit rate 0.056% among 200,000; AID 797;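 active means inhibition of 50% or more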;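 further: controls were vehicle for no effect and a reference inhibitor for full effect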
RGS16-Gao HTS – modulates binding between human RGS16 and Galphao | O15492+P09471 | bead-based flow cytometry RGS16-Galphao binding, fluorescence; actives lie on both sides | binding response (% of control), % at 10 µM | hit rate 0.38% among 220,000;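 active means below 25% or above 175%, edge rows of some plates excepted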;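 further: Galphao activated by GDP with aluminum fluoride before binding; 100% = wells without compound and 0% = beads without RGS; some results beyond the cut were filed as inactive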
Target sequence (O15492 whole entry, looked up): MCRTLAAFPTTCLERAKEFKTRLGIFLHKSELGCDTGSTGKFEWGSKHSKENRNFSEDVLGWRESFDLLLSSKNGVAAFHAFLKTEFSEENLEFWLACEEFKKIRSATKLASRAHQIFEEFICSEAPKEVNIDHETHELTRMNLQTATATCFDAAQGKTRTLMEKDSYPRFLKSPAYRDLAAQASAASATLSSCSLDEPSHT
Target sequence (P09471 whole entry, looked up): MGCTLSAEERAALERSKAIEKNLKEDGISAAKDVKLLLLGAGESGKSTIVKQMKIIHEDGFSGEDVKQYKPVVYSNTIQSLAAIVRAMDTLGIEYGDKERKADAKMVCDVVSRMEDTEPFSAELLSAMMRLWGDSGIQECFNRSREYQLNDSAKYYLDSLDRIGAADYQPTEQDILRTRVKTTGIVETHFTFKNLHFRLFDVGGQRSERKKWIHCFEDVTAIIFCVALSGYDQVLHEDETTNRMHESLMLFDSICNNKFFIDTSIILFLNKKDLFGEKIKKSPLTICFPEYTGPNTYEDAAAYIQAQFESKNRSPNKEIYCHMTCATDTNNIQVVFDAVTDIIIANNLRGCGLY
Insulin prom inh – TRM-6 insulin promoter activity inhibition; TRM-6 cells (human fetal islet line), insulin promoter-eGFP reporter, imaging; reporter expression induced with tamoxifen; inhibition, % at 2 µM; hit rate 0.9% among 130,000; AID 1273;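 active means inhibition above the mean plus 3 SD, with well images judged a real hit on visual review, cut at about 60% in these data, passing the limit was not always enough; inconclusive means inhibition over the cutoff but images rejected on review; inactive means inhibition not above the cutoff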
GALR2 ag – agonists of human galanin receptor 2 (GALR2); O43603; GALR2-expressing cells, agonist activation read-out; activation, %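 (tested at 5 µM)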; hit rate 0.48% among 140,000; AID 803;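 active means above mean plus 3 SD of all compounds, about 5% in these data, not always enough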;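 further: 0% = vehicle buffer wells and 100% = reference agonist at full effect; tested in CHO reporter cells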
Target sequence (O43603 whole entry, looked up): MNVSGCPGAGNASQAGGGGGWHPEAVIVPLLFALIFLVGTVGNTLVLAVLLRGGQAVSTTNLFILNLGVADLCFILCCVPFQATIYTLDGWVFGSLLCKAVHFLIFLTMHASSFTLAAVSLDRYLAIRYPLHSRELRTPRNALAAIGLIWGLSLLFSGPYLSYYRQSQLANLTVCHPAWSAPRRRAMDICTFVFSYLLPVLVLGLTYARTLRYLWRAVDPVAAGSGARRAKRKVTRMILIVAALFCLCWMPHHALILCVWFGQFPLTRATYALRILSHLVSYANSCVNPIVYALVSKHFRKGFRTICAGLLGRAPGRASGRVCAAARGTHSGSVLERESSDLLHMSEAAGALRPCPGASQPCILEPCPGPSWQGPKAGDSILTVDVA
Insulin prom inh cell count – also measured in Insulin prom inh; calls as there; normalized cell count, %; measured here: cell count, toxicity; reference of the scale not given here;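 cells exposed to compound for 48 h; stained nuclei by imaging scaled within each plate; lower means fewer cells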
HSV augment primary fold – second read-out of HSV augment, no call of its own (marks repeat the call); fold increase; compound at 10 µM; measured here: primary screen fold increase 10 uM; tested in PC3 cells;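 GFP signal in the first replicate; 1 = infected wells without compound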
* = called active by the depositor; i = inactive; ? = inconclusive; . = not tested or not shown.

Values run as follows: HSV augment	HSV augment primary fold	PKD1 kinase inh	RGS16-Gao HTS	Insulin prom inh	Insulin prom inh cell count	GALR2 ag
> Cn1c2ccccc2c2c(C(=O)N3CCN(c4ccccn4)CC3)cn(C3CCCC3)c(=O)c21
 : i	0.99	1	107	0	68	0.0
> C/C(=N\Nc1ccc(Cl)c(C(=O)O)c1)c1cccs1
 : i	0.81	.	97	.	.	.
> CC(C)=CCN1CCN(Cc2nc(-c3ccccc3)cs2)CC1CCO (stereo not given)
 : i	0.85	-3	103	.	.	.
> COc1ccc(C(=O)CSc2n[nH]c(=O)n2Cc2ccco2)cc1
 : i	0.9	.	98	.	.	.
> CCOC(=O)c1c(NC(=O)OC)sc(C(=O)N(CC)CC)c1C
 : i	0.99	4	101	-5	90	-0.8
> C[C@H](NC(=O)c1[nH]cnc1C(=O)Nc1ccc(CNC(=O)OC(C)(C)C)cc1)C(=O)OC(C)(C)C
 : i	0.83	.	99	.	.	.
> OCc1cc(-c2ccc(Cl)c(Cl)c2)on1
 : i	1	1	100	7	132	.
> COc1cc2c(cc1NC(=O)c1cc(-c3ccccn3)nc3ccccc13)oc1ccccc12
 : i	0.99	-2	102	-61	83	0.6
> Cc1ccccc1OCCNc1ccc(C(F)(F)F)cc1[N+](=O)[O-]
 : i	0.9	2	99	27	85	-3.7
> O=C(CCCc1nc2ccccc2s1)N1CCN(S(=O)(=O)c2cccs2)CC1
 : i	0.97	4	97	.	.	-2.7
> COCC(C)NC(=O)c1cc(-c2cccc(OC)c2)on1 (stereo not given)
 : .	.	-10	100	.	.	-0.3
> CCCCOc1ccc(N2C(=O)CC(NCc3ccncc3)C2=O)cc1 (stereo not given)
 : i	0.98	0	98	.	.	.
> O=C(CSc1nc(C2CCCCC2)nc2ccccc12)NCc1ccco1
 : i	0.67	-6	98	.	.	.
> Cn1c(=O)n(C)c2cc(NS(=O)(=O)c3ccc(C(C)(C)C)cc3)ccc21
 : i	0.95	3	99	.	.	.
> COc1cc(C2C(=O)N(C3CCCC3)CC(=O)N2Cc2ccco2)ccc1OC(C)C (stereo not given)
 : i	0.75	-1	93	-9	113	-1.5
> O=C1CC(=O)CC(c2ccccc2)C1
 : i	1	3	110	.	.	.
> COc1ccc(NC2CCN(C3CC(=O)N(c4ccc(F)c(Cl)c4)C3=O)CC2)cc1 (stereo not given)
 : i	1	-5	108	-22	118	0.4
> Cc1ccc2c(c1)C1C3CCC(C3)C1S(=O)N2 (stereo not given)
 : i	0.93	6	103	36	104	.
> Cc1ccc(-n2cc(CN3CCC(CO)(Cc4ccccc4)CC3)cn2)cc1
 : i	0.87	11	111	.	.	.
> COc1ccc(CCNC(=O)CCCCCn2c(SCC(N)=O)nc3cc4c(cc3c2=O)OCO4)cc1OC
 : i	0.93	0	105	-21	68	.
> CCCS(=O)(=O)n1nc(-c2ccc(OC)cc2OC)cc1N
 : .	.	-8	101	.	.	0.0
> O=C1NC2(CCCCCCC2)C(=O)N1Cc1ccc(F)cc1
 : i	0.95	.	102	.	.	.
> Cc1ccc(NS(=O)(=O)c2ccc(C3CCCCC3)cc2)cc1
 : i	1.1	17	103	-32	78	0.2
> CCOc1cc2[nH]c(=S)n(CCC(=O)NCc3ccco3)c(=O)c2cc1OCC
 : i	0.93	-2	103	-43	126	.
> CCc1nnc(NC(=O)c2ccc(Cl)nc2)s1
 : i	0.98	-3	100	.	.	.
> CCN(CC)S(=O)(=O)c1cc(C(=O)Oc2ccccc2OC)ccc1OC
 : i	0.74	1	103	-6	124	-0.7
> CCOC(=O)c1c(-c2ccc(OC)cc2)csc1/N=C/C1=C(O)CCCC1=O
 : i	1.6	-4	101	33	87	-1.0
> COc1ccc(C2=NCCn3cccc32)c(OC)c1
 : i	0.92	17	103	0	92	0.1
> CCOC(=O)c1ccc(NC(=O)CSc2n[nH]c(-c3ccncc3)n2)cc1
 : i	0.87	-5	95	15	93	-1.1
> CCN(CC)S(=O)(=O)c1ccc(-c2nnc(SCC(=O)Nc3cc(OC)cc(OC)c3)o2)cc1
 : i	0.82	3	60	4	124	-1.9
> CC(C)C(=O)NC(=S)Nc1ccccc1C(=O)Nc1ccccc1
 : i	0.89	3	104	.	.	-1.7
> COC(=O)c1ccccc1NC(=O)CSc1nncn1C
 : i	1	-1	101	.	.	.
> CSc1ccccc1C(=O)C1CCCN(C(=O)CCc2cccnc2)C1 (stereo not given)
 : i	0.95	-2	97	0	104	.
> O=C(c1ccc(Cl)c(Cl)c1)N1CCC(=O)N(C(COCc2cccc(C(F)(F)F)c2)Cc2ccccc2)CC1 (stereo not given)
 : i	0.84	5	58	-24	111	-0.8
> COc1ccc(NC(=O)C2C(=O)NC3(C)CC2c2ccccc2O3)cc1 (stereo not given)
 : i	0.96	-9	100	.	.	-2.3
> CC1CCN(c2nncc3ccccc23)CC1
 : i	0.98	-1	87	.	.	-2.6
> CC1CCCN(C(C(=O)NC2CCCCC2)c2cc3c(cc2[N+](=O)[O-])OCO3)C1 (stereo not given)
 : i	0.98	0	101	-7	128	-0.1
> CC(NC(=O)c1ccc(C23CC4CC(CC(C4)C2)C3)cc1)C(=O)O (stereo not given)
 : i	0.97	4	100	7	135	.
> O=[N+]([O-])c1ccc(SCCc2ccccn2)cc1
 : i	0.96	.	97	.	.	.
> CCN(CC)S(=O)(=O)c1cccc(NC(=O)COC(=O)CCC(=O)c2cccs2)c1
 : .	.	6	102	-14	118	.
> Cc1ccc(CC(NC(=O)c2ccccc2)C(=O)NC(CC(C)C)C(=O)O)cc1 (stereo not given)
 : i	0.99	-2	99	.	.	.
> COCCNC(=O)CCCn1c(=O)c2cc(OC)c(OC)cc2n(CC(=O)Nc2ccc(F)cc2)c1=O
 : i	0.9	-2	97	25	51	.
> CCN1CC(c2ccccc2)C(c2ccc(Cl)cc2)=N1 (stereo not given)
 : i	1	-2	102	28	94	0.4
> CCOC(=O)NC(Nc1nnc(SCC)s1)(C(F)(F)F)C(F)(F)F
 : i	1	-2	108	.	.	-0.6
> Cc1ccc(CNC(=O)C2CC(c3cccc([N+](=O)[O-])c3)=NO2)o1 (stereo not given)
 : i	1	5	100	20	64	0.5

Arranged by number of heavy atoms (ascending): part of the list above
Values run as follows: HSV augment	HSV augment primary fold	PKD1 kinase inh	RGS16-Gao HTS	Insulin prom inh	Insulin prom inh cell count	GALR2 ag
> COC(=O)c1ccccc1NC(=O)CSc1nncn1C
 : i	1	-1	101	.	.	.
> CCOC(=O)c1c(NC(=O)OC)sc(C(=O)N(CC)CC)c1C
 : i	0.99	4	101	-5	90	-0.8
> COCCNC(=O)CCCn1c(=O)c2cc(OC)c(OC)cc2n(CC(=O)Nc2ccc(F)cc2)c1=O
 : i	0.9	-2	97	25	51	.

More compounds.
Values run as follows: HSV augment	HSV augment primary fold	PKD1 kinase inh	RGS16-Gao HTS	Insulin prom inh	Insulin prom inh cell count	GALR2 ag
> Cc1ccnn1Cc1cc(C(=O)O)c2ccccc2n1
 : i	1	-4	106	.	.	.
> Cc1ccc(NC(=O)C2CCCN2C(=O)Oc2ccccc2)c(C)c1 (stereo not given)
 : i	0.99	-3	101	.	.	.
> CC(=O)c1sc(NC(=O)C=C(C)C)nc1C
 : i	0.61	-13	91	25	91	-2.0
> O=C(CCC(=O)OCC(F)(F)C(F)F)NCc1ccccc1
 : i	0.84	1	96	.	.	0.0
> O=C(N/N=C/c1cc([N+](=O)[O-])ccc1O)c1ccncc1
 : i	1.6	.	102	.	.	.
> CN(CC(=O)Nc1cccnc1)S(=O)(=O)c1ccccc1
 : i	0.98	5	193	-18	117	-2.7
> Cc1ccc(N(Cc2ccc([N+](=O)[O-])cc2)C(=O)c2ccco2)cc1C
 : i	0.94	-2	38	.	.	-0.7
> CCCCOC(=O)CSc1nnc(-c2cc(OC)c(OC)c(OC)c2)o1
 : i	0.8	0	99	46	182	0.4
> CN(C)c1ccc(/C=C/C(=O)c2ccccc2O)cc1
 : ?	.	-9	111	-164	179	.
> Cn1c(=O)[nH]c(=O)c2c1nc(N1CCCC1)n2CCCSc1nnnn1-c1ccccc1
 : i	0.9	7	115	-9	89	0.7
> COc1ccccc1C(=O)Nc1ccc(S(=O)(=O)N2CCc3ccccc32)cc1
 : i	0.89	4	111	26	56	-1.0
> O=C(Cc1ccc(Br)cc1)Nc1ccc(Cl)cc1
 : i	1.1	-8	95	.	.	.
> C[C@@H]1CC=C[C@H]2[C@H]1C(=O)N(Cc1ccccc1)[C@H]2c1ccc(-c2ccc(N(C)C)cc2)cc1F
 : i	0.93	.	113	.	.	.
> CCCNC(=O)NC(=O)COc1c(F)c(F)cc(F)c1F
 : i	0.94	-7	98	6	61	-3.6
> COCCCn1c(SCC(=O)Nc2ccc(C)cc2)nc2ccccc2c1=O
 : i	0.98	0	113	0	91	.
> COC(=O)c1ccc2nc(NC(=O)C(C)C)sc2c1
 : i	1	5	109	45	129	.
> Cc1nc2c(ccc3nc(NC(=O)c4ccc(S(=O)(=O)N(C)C)cc4)sc32)s1
 : i	0.72	-1	102	.	.	-0.6
> CCOC(=O)c1[nH]c2c(c1-c1ccc(OC)cc1)C(=O)CC(c1ccc(OC)c(OC)c1)C2 (stereo not given)
 : .	.	-6	.	-152	66	-0.2
> Cc1ccc(N(CC(=O)NN=C2CCN(C)CC2)S(=O)(=O)c2ccccc2)c(C)c1
 : i	1	-3	116	14	142	-0.2
> O=C(Nc1cc(F)cc(F)c1)c1ccc(NCCc2ccccc2)c([N+](=O)[O-])c1
 : i	1.2	-9	97	-22	120	-0.3
> COc1ccccc1C(=O)Oc1ccc2c(c1)O/C(=C\c1ccncc1)C2=O
 : ?	.	5	90	.	.	-0.2
> CSc1ccc(Cl)c(C(=O)OCC(=O)N2CC(C)OC(C)C2)c1 (stereo not given)
 : i	0.96	2	100	.	.	-0.7
> O=C(O)Cc1c(C(=O)O)[nH]c2ccc(C(=O)O)cc12
 : i	0.93	.	100	.	.	.
> CCOc1ccc(C(=O)N/N=C/c2c(C)[nH]c(=O)[nH]c2=O)cc1
 : i	0.84	.	95	.	.	.
> CCn1c(C)nc2cc(-c3nc4n(n3)Cc3ccccc3-4)ccc21
 : i	0.96	-8	102	-19	48	-1.2
> COc1ccc(C(=O)Nc2ccccn2)cc1
 : .	.	-5	224	25	86	0.9
> C/C(N)=C(/C#N)C(=O)CSc1nnc(Nc2c(C)cccc2C)s1
 : i	0.95	0	97	.	.	-0.6
> Cc1cc(Br)c(NC(=O)c2c(-c3c(Cl)cccc3Cl)noc2C)c(Br)c1
 : i	1	.	144	.	.	.
> Cc1cc(N/N=C/c2ccccc2O)nc(-c2ccccc2O)n1
 : i	0.62	2	103	-54	109	-3.1
> CC(C)C(=O)NC(=S)Nc1ccccc1N1CCN(C(=O)c2ccccc2)CC1
 : i	0.9	0	101	.	.	.
> CN(C)c1ccc(NC(=O)C(=O)C2C(=O)Nc3ccccc32)cc1 (stereo not given)
 : i	1	.	100	.	.	.
> O=C(NC1=NCCS1)c1ccc(Cl)c(S(=O)(=O)N2CCc3ccccc32)c1
 : i	0.77	.	106	.	.	.
> O=C(NCCCN1CCOCC1)c1c(F)cccc1F
 : i	0.85	0	101	54	149	-2.8
> CCOC(=O)c1c(NC(=O)c2ccc(Br)o2)sc(C)c1CC
 : i	0.94	-2	80	0	104	1.2
> Cc1cccc(C)c1OCC(=O)N/N=C/C=C/c1ccco1
 : i	0.89	-8	67	-53	52	.
> O/N=C\c1ccccc1Oc1ccc(F)cc1
 : i	0.98	4	104	13	142	.
> Cc1c(NC(=O)Cc2cccs2)cccc1[N+](=O)[O-]
 : i	0.87	0	103	.	.	.
> CC(C)Oc1c(N2CCOCC2)c(=O)c1=O
 : i	1.1	.	95	.	.	.
> O=S(=O)(Nc1nc2ccccc2nc1NCc1ccco1)c1ccccc1
 : i	1.1	6	99	-36	79	-1.4
> Cc1cc(OCC(=O)NCCN2CCOCC2)ccc1Br
 : i	0.62	-9	103	-19	126	-1.3
> CN1/C(=C\C=C2/SC(=S)NC2=O)C(C)(C)c2ccccc21
 : .	.	18	105	.	.	.
> COC(=O)c1sccc1NC(=O)Cc1ccc(Br)cc1
 : i	0.97	0	112	3	115	0.3
> C[C@@](Cc1ccc(O)c(O)c1)(NN)C(=O)O
 : .	.	-2	106	29	112	0.1
> CCOC(=O)C1C(=O)CC(C)(O)C(C(=O)OCC)C1c1ccc(C)s1 (stereo not given)
 : i	0.95	3	120	-8	83	-2.4
> CS(=O)(=O)N(CCc1ccccc1)CC(=O)N1CCN(c2ccccc2)CC1
 : i	0.98	-5	101	-39	119	1.0
> Cc1ccc(O)c(-c2cc(C(=O)NCc3ccncc3)[nH]n2)c1
 : i	0.91	-5	104	-29	129	-0.3
> COCCCNc1nc2ccccc2nc1NS(=O)(=O)c1ccc(C)c(C)c1
 : i	0.99	.	82	.	.	.

An unsorted share of the library. Share with any hit: about 1.3%.
